KCNQ2 inh: KCNQ2 potassium channel inhibitors, primary screen, cell-based, CHO-K1, FluxOR thallium flux, B-score (AID 2156); B-score at 10 µM; 20 min; active compounds read low; only compounds with negative scores are shown here; some inactives read as strong as hits; actives 1.1% (n = 310,000);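 active = fluorescence ratio B-score at most minus 3 library SDs, with starting brightness B-score within 2 library SDs, cut at about -5.5 in these data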
Target sequence (O88943 whole entry, looked up): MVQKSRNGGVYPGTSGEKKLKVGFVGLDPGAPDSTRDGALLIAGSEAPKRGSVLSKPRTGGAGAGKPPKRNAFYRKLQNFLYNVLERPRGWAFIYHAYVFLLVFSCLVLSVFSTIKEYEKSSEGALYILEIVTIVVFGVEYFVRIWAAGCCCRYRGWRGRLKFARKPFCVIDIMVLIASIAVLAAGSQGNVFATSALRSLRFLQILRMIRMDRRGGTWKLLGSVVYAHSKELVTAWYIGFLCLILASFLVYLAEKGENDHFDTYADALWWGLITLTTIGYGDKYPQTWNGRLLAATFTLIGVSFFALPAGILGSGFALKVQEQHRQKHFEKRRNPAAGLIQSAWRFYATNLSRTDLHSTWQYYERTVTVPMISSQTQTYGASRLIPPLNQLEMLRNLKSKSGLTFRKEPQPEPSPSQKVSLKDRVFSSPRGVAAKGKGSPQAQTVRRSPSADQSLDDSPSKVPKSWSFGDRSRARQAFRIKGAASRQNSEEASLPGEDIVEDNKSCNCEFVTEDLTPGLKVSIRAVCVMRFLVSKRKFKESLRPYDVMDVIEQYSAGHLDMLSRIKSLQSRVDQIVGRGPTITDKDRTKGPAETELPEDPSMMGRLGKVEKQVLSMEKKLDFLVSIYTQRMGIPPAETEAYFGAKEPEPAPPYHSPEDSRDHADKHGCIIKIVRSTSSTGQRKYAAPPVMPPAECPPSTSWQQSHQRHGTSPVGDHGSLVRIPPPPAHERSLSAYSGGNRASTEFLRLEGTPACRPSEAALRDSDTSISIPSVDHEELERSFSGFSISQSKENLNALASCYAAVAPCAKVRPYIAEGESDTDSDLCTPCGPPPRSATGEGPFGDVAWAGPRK
KCNQ2 inh baseline: also measured in KCNQ2 inh; calls as there; B-score; measured here: initial fluorescence intensity artifact check;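 brightness before thallium and not channel activity; 0 = typical well and far values either way flag optical interference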
An asterisk follows results filed as active; i = inactive. Only part of the results is shown. The share of hits here may be higher or lower than overall.

Sequence of screens – KCNQ2 inh baseline	KCNQ2 inh
> CCCOc1ccc2c(=O)c(N3C(=O)c4ccccc4C3=O)c(C)oc2c1
→ 1.2	i
> COc1cc(Br)c(CC(=O)O)cc1OC
→ -0.23	i
> COc1ccc(S(=O)(=O)NC2CC2)cc1C(=O)N1CCOCC1
→ 0.45	i
> COC(=O)C1=C(C)N(C)C(=O)NC1c1ccc(C)cc1 (stereo unspecified)
→ 0.48	i
> COc1cc(/C=N/OCC(=O)Nc2cc(C)cc(C)c2)ccc1OCc1ccc(Cl)cc1
→ 0.35	i
> CNC(=O)CN1C(=O)c2cccc3cccc1c23
→ 0.06	i
> Cc1ccc(C)c(NC(=O)CSc2nnc(-c3ccco3)o2)c1
→ -0.23	i
> O=C(CCSc1nnc2scc(-c3ccccc3)n12)NCc1ccc2c(c1)OCO2
→ -0.21	i
> Fc1ccccc1OCCCCCN1CCCC1
→ -0.18	i
> COc1ccc2oc(=O)c(C(=O)NC3CCCCCC3)cc2c1
→ 1.2	i
> CC(Oc1ccc(Cl)cc1Cl)C(=O)Nn1cnnc1 (stereo unspecified)
→ 4.7	i
> CCC(=O)NC(=S)Nc1ccc(NC(=O)c2cccnc2)cc1
→ -1.5	i
> COc1ccc(C2C(C(C)=O)=C(O)C(=O)N2c2nccs2)cc1OC (stereo unspecified)
→ 2.2	i
> COc1ccc(C(=O)Nc2ccccc2C(=O)N2CCCCC2C)cc1 (stereo unspecified)
→ -0.24	i
> COc1cc(OC)c(OC)cc1CN1CCc2ccccc2C1
→ 1.1	i
> Cc1oc(-c2ccc(Cl)cc2)nc1CN1CCC(C(=O)NCc2ccco2)CC1
→ 0.63	i
> CCC(=O)Nc1ccc(C(=O)Nc2ccc3c(c2)OCO3)cc1
→ -0.05	i
> Cc1sc2nc(CSc3ccc([N+](=O)[O-])cc3)[nH]c(=O)c2c1C
→ -1.6	i
> Cc1ccc(S(=O)(=O)N(C)Cc2ccc(C(=O)NN=C3C4CC5CC(C4)CC3C5)cc2)cc1
→ 1.1	i
> CCSc1nc(-c2cccs2)nc2ccccc12
→ -0.1	i

Entries listed so far containing a halogen (five):
Sequence of screens – KCNQ2 inh baseline	KCNQ2 inh
> COc1cc(Br)c(CC(=O)O)cc1OC
→ -0.23	i
> COc1cc(/C=N/OCC(=O)Nc2cc(C)cc(C)c2)ccc1OCc1ccc(Cl)cc1
→ 0.35	i
> Fc1ccccc1OCCCCCN1CCCC1
→ -0.18	i
> CC(Oc1ccc(Cl)cc1Cl)C(=O)Nn1cnnc1 (stereo unspecified)
→ 4.7	i
> Cc1oc(-c2ccc(Cl)cc2)nc1CN1CCC(C(=O)NCc2ccco2)CC1
→ 0.63	i

Next results follow:
Sequence of screens – KCNQ2 inh baseline	KCNQ2 inh
> Cc1ccc(S(=O)(=O)NCCOC(=O)Nc2sc(=S)n(C)c2C)cc1
→ -1.2	i
> CCOCCCNC(=O)C1c2ccccc2Oc2ccccc21
→ -0.98	i
> COC(=O)c1cc(COc2ccc3oc(C)c(C(=O)OC(C)C)c3c2)c(C)o1
→ -0.47	i
> Cc1ccc(C(CC(=O)c2ccco2)SCCO)cc1 (stereo unspecified)
→ 0.1	i
> Cc1sc(NC(=O)C2=COCCO2)nc1-c1ccc(Br)cc1
→ 0.71	i
> CCOC(=O)C1CCN(C(=O)C(C)Oc2ccc(Br)cc2)CC1 (stereo unspecified)
→ -0.14	i
> COc1ccc(C(=O)Nn2c(CC(C)C)nc3cc(OC)c(OC)cc3c2=O)c(OC)c1
→ 1.1	i
> CCO[C@@H]1OC(C(=O)N2CCN(Cc3ccc4c(c3)OCO4)CC2)=C[C@H](c2ccc(C(F)(F)F)cc2)[C@H]1CCCO
→ -0.64	i
> CN(C)/C=N/c1sccc1C(N)=O
→ -2.5	i
> COc1ccc(-c2nn(C)c(=O)c3ccccc23)cc1CNS(C)(=O)=O
→ 0.61	i
> CS(=O)(=O)Nc1ccc(Oc2ncccn2)cc1
→ -2.9	i
> Oc1ccc(/C=N/NC2=NCCCCC2)c(O)c1
→ -1	i
> O=C(c1ccccc1)c1ccc(OCCOCCN2CCN(Cc3ccccc3)CC2)cc1
→ 0.54	i
> CC(C)(C)C(=O)Cn1c(NCCO)nc2ccccc21
→ -0.63	i
> O=C(OCc1nc2ccccc2[n+]([O-])c1C(=O)c1ccccc1)c1cccs1
→ -0.38	i
> Cc1ccc(S(=O)(=O)N(CC(=O)Nc2cccnc2)c2cccc(Br)c2)cc1
→ 1.3	i
> OCCN1CCN(c2ncnc3c2c(-c2ccccc2)cn3-c2ccc(Br)cc2)CC1
→ -0.88	i
> O=C(Cc1ccc(Cl)cc1)NCC(=O)N1CCCCCC1
→ 2.1	i
> Cc1cc[n+](CC(=O)N2CCCc3ccccc32)cc1
→ 0.25	i
> CCCCN(C(=O)CCC(=O)Nc1cc(C)on1)C(C(=O)NC(C)(C)C)c1cccc(OC)c1OC (stereo unspecified)
→ -0.88	i
> CCOC(=O)CCC(=O)Nc1ccc(S(=O)(=O)N2CCCCC2)cc1
→ 0.69	i
> COCCN1CCc2c(C)nc3c(-c4ccc(OC)c(OC)c4)cnn3c21
→ 0.14	i
> CC(=O)c1ccc(OCc2cc(C(=O)N(C)CCN3CCOCC3)no2)cc1
→ -1.4	i
> COc1ccc(NC(=O)CN(C)S(=O)(=O)c2cccc3nsnc23)cc1
→ -1.9	i
> Cc1ccc(OCC(=O)NNC(=O)CCc2ccccc2)c(Br)c1
→ -0.96	i
> CCc1cc(=O)oc2c(CNCc3c(F)cccc3Cl)c(O)ccc12
→ -1.9	i
> COc1ccccc1NS(=O)(=O)c1ccc(C)c(C(=O)NCCCN2CCCC2=O)c1
→ 5.7	i
> O=C(Nc1ccc(-n2cnnn2)cc1)C1CCCN1C(=O)NC1CCCCC1 (stereo unspecified)
→ -0.01	i
> CC(/C=C/c1ccccc1)=N/NC(=O)c1cccc(Br)c1
→ -2.2	i
> O=S(=O)(c1cc(Br)ccc1Br)N1CCCCCC1
→ -0.07	i
> N#Cc1c(NC(=O)CSc2nnc(-c3ccccc3)o2)sc2c1CCCC2
→ -0.45	i
> CSc1ccccc1OCc1cc(C(=O)NC(C)Cc2cccc(C)n2)no1 (stereo unspecified)
→ -0.69	i
> Cc1cccc(NC(=O)CSc2nccn2Cc2ccco2)c1C
→ -0.84	i
> CCCCCNC(=O)Cc1ccc(OC)cc1
→ -2.1	i
> COc1cccc(N2CC(NS(=O)(=O)c3ccc4ccccc4c3)CC2=O)c1 (stereo unspecified)
→ 0.62	i
> CCOC(=O)CSc1nc2c(c(=O)n(C)c(=O)n2C)n1CCCc1ccccc1
→ 2.6	i
> Cc1ccc(-c2cc(C(=O)NCc3cnn(C)c3C)c3cc(Br)ccc3n2)cc1
→ 0.61*	-9.2*
> CC1(C)OC(=O)C(=C2CCCN2)C(=O)O1
→ -0.79	i
> COc1cnn(-c2ccc(C)cc2)c(=O)c1SCc1ccccc1
→ -0.08	i
> COc1cc(CN2CCN(c3cccc(Cl)c3)CC2)cc(OC)c1OC
→ -1.6	i

One compound at a time (already shown). Order of screens: KCNQ2 inh baseline | KCNQ2 inh
Record of CCc1cc(=O)oc2c(CNCc3c(F)cccc3Cl)c(O)ccc12 → -1.9 | i
Record of COc1ccccc1NS(=O)(=O)c1ccc(C)c(C(=O)NCCCN2CCCC2=O)c1 → 5.7 | i

Additional records follow:
Sequence of screens – KCNQ2 inh baseline	KCNQ2 inh
> COc1ccc(OC2C(=O)N(Cc3ccc4c(c3)OCO4)C2c2sccc2C)cc1 (stereo unspecified)
→ -0.47	i
> CC(Sc1ncnc2sccc12)C(=O)Nc1ccc(C(N)=O)cc1 (stereo unspecified)
→ -1.8	i
> COc1ccc(-c2nnn(Cc3ccccc3)n2)cc1OC
→ -0.44	i
> Cc1ccc(S(=O)(=O)N(C)C)cc1NC(=O)COC(=O)CCC(=O)c1ccc(F)cc1
→ -0.29	i
> COc1cc(/C=C2\SC(=Nc3ccccc3)NC2=O)cc(Cl)c1O
→ 5.1	i
> COc1ccc(Cl)cc1NC(=O)CN1c2ccccc2CC1C (stereo unspecified)
→ -0.41	i
> Cc1ccc(-c2nnc(NCc3nc4ccccc4[nH]3)c3ccccc23)cc1S(=O)(=O)N(C)C
→ -0.14	i
> CC1CC(C)CN(CC(=O)N2CCCc3c2c(=O)oc2ccc(OCc4ccccc4)cc32)C1 (stereo unspecified)
→ -0.14	i
> c1ccc(Cn2cc(CN3CCCCO3)c(-c3ccc4c(c3)OCO4)n2)cc1
→ -3.9	i
> COc1ccc(OC)c(N(/C(N)=N/c2nc(C)cc(C)n2)S(=O)(=O)c2ccc(NC(C)=O)cc2)c1
→ 2.6	i
> COc1cccc(C=NCC(C)N=Cc2cccc(OC)c2O)c1O (stereo unspecified)
→ 0.85	i
> O=C(O)[C@@H]1[C@@H]2C[C@@H]2CN1c1ncccc1[N+](=O)[O-]
→ 4	i
> O=c1[nH]c2ccccc2c(O)c1-c1ccccc1[N+](=O)[O-]
→ 0.44	i
> COC(=O)CCCC(=O)N1CCCC(C(=O)c2ccccc2SC)C1 (stereo unspecified)
→ 0.54	i
> O=C(c1ccc(-n2cccn2)cc1)N1CCN(c2ncccc2C(F)(F)F)CC1
→ 0.31	i
> OCC1(CCc2ccccc2)CCN(Cc2ccc(OC(F)F)cc2)CC1
→ -0.04	i
> COCCNC(=S)Nc1ccccc1Cc1ccccc1
→ -0.05	i
> Cc1cc(N/N=C/c2cccc(Cl)c2)nc(NCc2ccccc2)n1
→ 0.79	i
> CC1(C)CC(=O)C2=C(C1)OC1OC(=O)CC21C (stereo unspecified)
→ -2.5	i
> CCOC(=O)Cn1c(=O)c2c(nc(Br)n2Cc2ccccc2Cl)n(C)c1=O
→ -0.09	i
> Nc1nc(Nc2ccccc2F)nc(NCCO)c1[N+](=O)[O-]
→ -0.62	i
> COc1ccc([C@@H]2C[C@H]3CN(c4ccccc4)C(=O)[C@]34CCCN24)c(OC)c1OC
→ -0.58	i
> COC(=O)C1C2C=CC3(CN(c4ccc(Cl)c(F)c4)C(=O)C13)O2 (stereo unspecified)
→ 0.51	i
> COc1cccc(-c2cc(C(=O)O)no2)c1
→ 1.6	i
> O=C(N=C1c2ccccc2CN1c1ccc(F)cc1)c1ccc(Cl)nc1
→ -1.1	i
> CC1CN(C(=O)CCNS(=O)(=O)c2ccc(Br)cc2)CC(C)O1 (stereo unspecified)
→ 2.5	i
> Cc1ccc2c(c1)N(CC(=O)N1CCCCCC1)C(=O)c1cccnc1O2
→ 0.65	i
> CC(C)C[C@H](NC(=O)c1nc[nH]c1C(=O)N1CCc2ccccc2C1)C(=O)OCc1ccccc1
→ 1.1	i
> Cc1ccccc1S(=O)(=O)/N=C(/Nc1c(C)n(C)n(-c2ccccc2)c1=O)c1ccccc1
→ -0.97	i
> O=C(CCCSc1ccccc1)Nc1nc(-c2ccco2)c(-c2ccco2)s1
→ 0.17	i
> O=[N+]([O-])c1ccc(Cl)c(/C=N/n2c(-c3ccncc3)n[nH]c2=S)c1
→ 1.6	i
> COc1ccc(Oc2nc3c(C)cccn3c(=O)c2/C=C(\C#N)C(N)=O)cc1
→ -0.01	i
> COc1cccc(C(=O)Nc2ccc(N3CCN(C(=O)c4cccs4)CC3)cc2)c1
→ -3.2	i
> CC1CCN(S(=O)(=O)c2ccccc2)CC1
→ -0.38	i
> Cn1c(NC(=O)c2ccc(F)cc2)c(-c2cccs2)c(=O)c2ccccc21
→ 1.2	i
> C(=N\NC1=Nc2cccc3cccc1c23)/c1ccccc1
→ 0.08	i
> OCCN(Cc1ccccc1)Cc1ccccc1F
→ -2.5	i
> Cc1nc2ccc(F)cc2cc1C(=O)NC(C)C
→ 0.45	i
> COC(=O)CCCC1=CC2=CC(=O)C(C)(OC(=O)c3ccco3)C(=O)C2=CO1 (stereo unspecified)
→ 2.1	i
> Cc1ccc(NC(=O)c2cc(-c3ccc4c(c3)OCO4)on2)cc1C
→ 0.9	i
> Cn1c(N)c(C(=O)COC(=O)c2cc(C3CC3)nc3ccccc23)c(=O)n(C)c1=O
→ 0.85	i
> COc1ccc(OC(C)C(=O)Nc2cccc(OC)c2)cc1 (stereo unspecified)
→ 0.57	i
> Cc1ccc2nsnc2c1S(=O)(=O)NCc1ccc2c(c1)OCO2
→ -0.23	i
> Cc1c(C(=O)N2CCc3ccccc32)oc2ccccc12
→ 0.07	i
> CCCCC(C)n1[nH]c(=O)c2c(C)cc(C)nc21 (stereo unspecified)
→ 0.25	i
> Cc1ccc(-c2nc3ccsc3c(=O)o2)cc1
→ 2.4	i
> CC(=NC1CCCC1)c1c(C)[nH]n(-c2nc3ccccc3s2)c1=O
→ 0.09	i
> O=C(NCc1ccccc1Cl)C1CCCN(c2nc3ccsc3c(=O)s2)C1 (stereo unspecified)
→ 2.2	i
> CCN(CC)S(=O)(=O)c1ccc(C)c(NC(=O)CN2CCN(Cc3ccccc3)CC2)c1
→ -0.68	i
> Cc1ccnc(SCc2cn3c(C)cc(C)nc3n2)n1
→ 0.98	i
> COC(=O)c1ccccc1S(=O)(=O)N1CCC(NC(=O)C(Cc2cccc(OC)c2OC)NC(C)=O)CC1 (stereo unspecified)
→ -1.3	i
> O=C(Nc1ccccc1N1CCCC1)c1ccc(Cl)c(S(=O)(=O)N2CCOCC2)c1
→ 3.3	i
> Cc1cccc(S(=O)(=O)NCCC(=O)OCC(=O)Nc2ccc(C#N)cc2)c1
→ -1.1	i
> COc1cc(OC)c(OC)cc1/C=C1\CCC/C(=C\c2cc(OC)c(OC)cc2OC)C1=O
→ -0.08	i
> Cc1ccc(OCC(=O)N2CCOCC2)cc1C
→ 0.8	i
> Cc1ccc(/C=N/NC(=O)C2COc3ccccc3O2)s1 (stereo unspecified)
→ 0.09	i
> Cc1cccc(C(=O)NCC(c2ccc(F)cc2)N2CCOCC2)c1 (stereo unspecified)
→ 0.03	i
> Cc1noc(-c2ccccc2)c1NC(=O)Nc1ccccc1
→ 0.89	i
> CCc1ccc2[nH]c(C(=O)Nc3ccc(F)cc3Br)cc2c1
→ -0.78	i
> Cc1nn(Cc2ccc(F)cc2)c(C)c1NC(=O)c1cnn2cccnc12
→ -0.45	i
> O=C(CSCc1ccccc1Cl)N1CCN(c2ccccn2)CC1
→ 1.1	i

High-throughput results from PubChem.
